VDR inh: vitamin D3 receptor (human) inhibition. P11473. Potency, µM, without a hit: max response, negative = inhibition, actives largely listed as inhibitors. 400,000 tested, 0.93% active. VDR-SRC2-3 peptide fluorescence polarization, 2 h. AID 504847; active = well fitted inhibition curve with a large enough effect; inconclusive = small, poorly fitted or top-dose-only effect, or another doubt; inactive = no such curve, though single readings can be large or run the other way; also: series mostly up to about 120 µM
Target sequence (P11473 whole entry, looked up): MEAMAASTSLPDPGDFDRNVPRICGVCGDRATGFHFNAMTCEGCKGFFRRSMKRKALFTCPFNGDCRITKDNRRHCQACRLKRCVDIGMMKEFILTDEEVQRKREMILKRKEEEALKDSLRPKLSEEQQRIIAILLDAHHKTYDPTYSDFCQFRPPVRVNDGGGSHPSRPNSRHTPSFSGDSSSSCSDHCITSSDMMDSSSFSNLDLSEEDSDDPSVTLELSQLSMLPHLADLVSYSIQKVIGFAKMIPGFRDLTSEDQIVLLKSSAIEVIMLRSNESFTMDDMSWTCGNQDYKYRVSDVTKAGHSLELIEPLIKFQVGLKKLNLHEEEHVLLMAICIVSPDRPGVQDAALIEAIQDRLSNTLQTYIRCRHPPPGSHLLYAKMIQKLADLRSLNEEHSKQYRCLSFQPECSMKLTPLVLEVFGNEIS
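Reagent solutions, kept cold and dark, are dispensed first; compounds are then pinned in at 23 nl, plates briefly spun, and incubated 2 h at ambient temperature. Inhibition of VDR–SRC2-3 peptide binding is read by fluorescence polarization.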
* = called active by the depositor; ? = inconclusive; & = joins results of further samples. % is scaled to controls: 0 for no effect and ±100 for the full control effect; potency is read from the fitted curve at half-maximal effect. These rows are one share of the data; the hit share may differ from the screen's.

Sample of the layout, 2 compounds:
SMILES	VDR inh
Fc1ccccc1-c1csc(=Nc2cccnc2)n1CC1CCCO1 (centres undefined)	5%
NC1=C(Cl)C(=O)c2ccc(S(N)(=O)=O)cc2C1=O	1%

All compounds of this part, from the start:
SMILES	VDR inh
Fc1ccccc1-c1csc(=Nc2cccnc2)n1CC1CCCO1 (centres undefined)	5%
NC1=C(Cl)C(=O)c2ccc(S(N)(=O)=O)cc2C1=O	1%
Cc1ccc(OCC(=O)Nc2cccc(S(=O)(=O)N3CCCCC3)c2)c([N+](=O)[O-])n1	-4%
CC(C)NC(=O)C1CCCN(c2ncnc3onc(-c4ccc(F)cc4)c23)C1 (centres undefined)	-3%
O=C(NCc1cccs1)C(=O)NCC1OCCCN1S(=O)(=O)c1cccs1 (centres undefined)	-27%
Cn1c(N)c(C(=O)COC(=O)COc2ccc3ccccc3c2)c(=O)n(C)c1=O	-5%
CCOC(=O)/C=C/C(=O)OCC(=O)Nc1ccc([N+](=O)[O-])cc1	?
COc1ccc(S(=O)(=O)c2c(Nc3cccc(Cl)c3)sc(C(=O)c3ccccc3)c2N)cc1	5%
Clc1ccc(-c2ccnc(Oc3ccc4ccccc4c3)n2)cc1	-9%
Cc1cccc(NC(=O)Cn2cc(C=O)c3ccccc32)c1	-13%
CCCCn1c(N)c(N(CC(C)C)C(=O)C2CC(=O)N(c3ccccc3C(C)CC)C2)c(=O)[nH]c1=O (centres undefined)	-10%
CN(C)S(=O)(=O)c1cc(NC(=O)CN2CCN(c3ccccc3F)CC2)ccc1Cl	-5%
CCOC(=O)C1CCCN(C(=O)c2c(C)nn(-c3ccc(F)cc3)c2-n2cccc2)C1 (centres undefined)	4%
CSc1ccccc1OCc1cc(C(=O)NCCc2nc(C)cc(C)n2)no1	-3%
O=C(c1ccccc1)n1nc(-c2ccco2)nc1NCc1cccs1	12%
CC(NCCC1(Cc2ccccc2Cl)CCOC(C)(C)C1)c1cccs1 (centres undefined)	15%
COc1ccc(C2N(S(=O)(=O)c3ccccc3)CCN2S(=O)(=O)c2ccc(C)cc2)cc1 (centres undefined)	1%
Cc1ccccc1OCCn1c(=N)n(C(C)C)c2ccccc21	4%
CCOc1ccc(NC(=O)CN(C)C(=O)C2CC(=O)N(c3cccc(SC)c3)C2)cc1OCC (centres undefined)	-13%
CCN(CC(=O)O)S(=O)(=O)c1cc(Cl)ccc1Cl	12%
CC(C)C[C@H]1CN=C(Nc2ccccc2)N1CC1CCCCCC1	-7%
CCOc1ccc(C2C(C(=O)c3ccco3)=C(O)C(=O)N2CCN2CCOCC2)cc1 (centres undefined)	-13%
CCn1c(CNC(=O)Cc2ccc(OC)cc2)nnc1SCC(=O)c1ccccc1	11%
CCN(Cc1ccccc1)C(=O)COC(=O)c1n[nH]c2ccccc12	-5%
CCCCc1nn2c(=O)cc(COC(=O)c3ccccc3C)nc2s1	22%
COc1ccc(CCCC(=O)N/N=C/c2ccccc2OC)cc1	2%
Cc1ccc(N(C(C)C(=O)N2CCCC2)S(C)(=O)=O)cc1 (centres undefined)	-3%
O=C(CSC1=NS(=O)(=O)c2cc(F)ccc2N1)Nc1ccccc1	-8%
O=C(CN1C(=O)COc2ccc(S(=O)(=O)N3CCCCC3)cc21)NCc1ccc(F)cc1	-1%&24%
COc1ccc(NC2CC(=O)NC2=O)cc1 (centres undefined)	12%
COc1cc(/C=N/Nc2ccnc(=O)[nH]2)ccc1O	-3%
O=C(O)c1cc(Cl)ccc1-c1ccc(/C=C/c2cc(C(F)(F)F)[nH]c(=O)n2)o1	-15%
CN(C)/C=N/c1nc(Sc2ccc(C(F)(F)F)cc2[N+](=O)[O-])n[nH]1	-2%
O=C(CSc1nnc(-c2ccco2)n1-c1ccccc1)NCc1ccco1	-10%
COC(=O)CSc1ccnc2cc(Cl)ccc12	15%
CCOC(=O)c1c(C)c(C(=O)NCc2cccs2)c(C)n1C	-8%
COc1ccc2c(c1)C(C1C(=O)CCCC1=O)c1ccccc1O2 (centres undefined)	5%
CCOc1ccc(NC(=O)CN(C)C(=O)Cc2c[nH]c3ccccc23)cc1OCC	-5%
Cc1cccnc1NC(=O)Cn1nc([N+](=O)[O-])cc1C	1%
CC(=O)Nc1ccc(-c2csc(NC(C)c3ccccc3)n2)cc1 (centres undefined)	-16%

Fetched by compound from the list above:
SMILES	VDR inh
CCOC(=O)/C=C/C(=O)OCC(=O)Nc1ccc([N+](=O)[O-])cc1	?
Cn1c(N)c(C(=O)COC(=O)COc2ccc3ccccc3c2)c(=O)n(C)c1=O	-5%
Cc1cccc(NC(=O)Cn2cc(C=O)c3ccccc32)c1	-13%
CCOC(=O)c1c(C)c(C(=O)NCc2cccs2)c(C)n1C	-8%

(list continues)
SMILES	VDR inh
Nc1nc(=S)c2n[nH]nc2[nH]1	-11%
COC(=O)c1ccc2c(c1)N(CC(=O)Nc1ccc(C)cc1Cl)C(=O)c1ccccc1S2	4%
CCOc1ccc(NC(=O)[C@@H](NC(=O)c2ccccc2Br)C(C)C)cc1	-18%
COc1ccc(NC(=S)Nc2ccc(N)c([N+](=O)[O-])c2)cc1	-1%
COc1cccc(=O)c2c(C)n(C)c(C)c12	-8%
CC(Oc1ccc2c(-c3ccccc3)cc(=O)oc2c1)C(=O)NCCCN1CCOCC1 (centres undefined)	-18%
O=C1N=C(N2CCCCC2)S/C1=C\c1ccc(Cl)cc1	-4%
CC(=C/c1ccccc1)/C=N/NC(=O)c1cnccn1	-3%
CC(=O)C[C@H]1c2cc(C(F)(F)F)ccc2S(=O)(=O)N1c1ccc(N(C)C)cc1	-7%
O=C(Nc1nc2ccccc2[nH]1)c1ccc(Cl)cc1	-3%
COc1ccccc1C1CCN(C(=O)c2ccco2)CC1	21%
CCN(CC)S(=O)(=O)c1ccc(NC(=O)COC(=O)c2c[nH]c(=O)[nH]c2=O)cc1	-17%
O=C(NCCN1CCOCC1)c1ccc2c(c1)N(Cc1ccc(Cl)cc1)CCS2	1%
CCCC(=O)Nc1ccc(C(=O)NNC(=O)c2cccc([N+](=O)[O-])c2)cc1	-1%
O=C(c1cc(C(F)(F)F)cc(C(F)(F)F)c1)N1CCC2(CCCN(c3ccccc3)C2)CC1	-10%
CC1CN(c2nc(-c3ccccc3)nc3ccccc23)CC(C)O1 (centres undefined)	-1%
Cc1ccccc1CNC(=O)CC1C(=O)NCCN1CC1CCCCC1 (centres undefined)	4%
COc1c([N+](=O)[O-])c(=O)n(-c2ccccc2)c2ccccc12	-12%
Cc1nc(S/C(=C/c2ccc(OCc3ccc(C(=O)O)cc3)cc2)C(=O)O)n[nH]1	3%
COc1ccc(S(=O)(=O)N2CCC(C)CC2)cc1Br	2%
Cc1cc(N2C(=O)C(O)=C(C(=O)c3cccs3)C2c2ccccc2)no1 (centres undefined)	0%
O=C(CC1C(=O)OCC2CCCCN21)Nc1ccccc1C(F)(F)F (centres undefined)	-23%
COc1cc(CN2CCNC(=O)C2CC(=O)N(C)CCC2CCOCC2)cc(OC)c1 (centres undefined)	?
CCCn1nc(C(=O)OCC(=O)NC(C)c2ccccc2)c2ccccc2c1=O (centres undefined)	-9%
CCCN1C2CCCC1CC(NC(=O)c1cccc([N+](=O)[O-])c1)C2 (centres undefined)	-1%
Clc1ccc(NC2=NCCCCC2)cc1	12%
COc1ccc(NC(=O)CCCc2nnc3n(CCC(C)C)c(=O)c4sccc4n23)c(OC)c1	-2%
COc1ccccc1C(=O)NNc1ncc(C)s1	?
CC(=O)C1=C(C)Nc2ncnn2C1c1ccc(C)cc1 (centres undefined)	19%
N#C/C(=C/c1cn(-c2ccccc2)nc1-c1cccc(OCc2ccccc2)c1)C(=O)NCCCn1ccnc1	12%
NC(=O)NC(=O)C(Nc1ccc2c(c1)CCC2)c1ccccc1 (centres undefined)	-2%
C=CC[C@H](CC(=O)N(CCO)Cc1ccccc1)C(=O)N[C@H](COC(=O)[C@H](CC=C)CC(=O)OC(C)(C)C)Cc1c[nH]c2ccccc12	-4%
O=C(CSc1cn(CCNC(=O)c2ccccc2)c2ccccc12)NCc1ccco1	-12%
COc1cccc(C(=O)NCCS(=O)(=O)NC(C)CCc2ccccc2)c1 (centres undefined)	4%
CCOc1ccc(S(=O)(=O)Nc2ccc3c(c2)CCCN3S(=O)(=O)c2ccc(C)cc2)cc1	4%
Cn1c(=O)c(=O)n(C)c2cc(S(=O)(=O)N3CCc4ccccc43)ccc21	1%
COC(=O)c1ccc(NC(=O)c2ccc3nc(C)sc3c2)cc1	3%
COc1ccccc1C(=O)N1CCN(Cc2nc(CC3CC3)no2)CC1	-17%
Brc1ccc(OCCN2CCOCC2)cc1	-13%
CCOC(=O)NC(=O)c1cn(Nc2ccccc2C(F)(F)F)c(=O)[nH]c1=O	18%
CC(=O)Oc1c(I)cc(I)cc1C(=O)Nc1ccc(Cl)cc1	-18%
CN(CCC#N)S(=O)(=O)c1cc2c3c(c1)CCN3C(=O)CC2	-10%
CC1CCN(C(=O)CSc2nnc(Cc3cccn3C)n2CCc2ccccc2)CC1	-22%
CCC/C(C#Cc1cc(OC)cc(OC)c1)=C1/c2ccccc2C(=O)N1c1ccccc1	-16%
O=C(COC(=O)c1ccccc1C(=O)N1CCN(c2ccc(F)cc2)CC1)NCc1ccccc1	-2%
Cc1ccc(C)c(OCCC(=O)OCC(=O)Nc2cc(S(=O)(=O)N3CCCCC3)ccc2C)c1	-15%
COc1cccc(NC(=O)CN(C)C(=O)c2ccc(NC3CC3)c([N+](=O)[O-])c2)c1	-13%
CCOc1ccc(N(C(=O)c2ccc(Cl)cc2)S(=O)(=O)c2ccc3c(c2)n(C)c(=O)n3C)cc1	-9%
O=c1cc(NCCc2ccccc2)c2ccccc2o1	-14%
CCCOc1ccc(CNC(=O)Cn2ncc3ccccc32)cc1	-11%

Other compounds.
SMILES	VDR inh
CCCCC(NC(=O)c1ccc(Cl)cc1)C(=O)O (centres undefined)	5%
C=CCn1c(SCc2ccc(C#N)cc2)nnc1-c1cccc(OC)c1	15%
CCOP(=O)(OCC)c1nc(-c2cccc3ccccc23)oc1N1CCCCC1	4%
CCC(Sc1nc(C)cc(C)n1)C(=O)Nc1ccc(S(N)(=O)=O)cc1 (centres undefined)	26%
Cc1ccc(C2c3c(oc4ccccc4c3=O)C(=O)N2c2nnc(C(C)C)s2)o1 (centres undefined)	-17%
CCCCN1CC[C@H]2C=CC[C@@H](C(=O)Nc3ccccc3)[C@H]2C1=O	-6%
Cc1cc(C(F)(F)F)nn1CC(=O)N1CCCC1	-5%
CCOC(=O)C1CCN(Cc2ccc(-c3ccccc3)cc2)CC1	-8%
O=C(CN1CCCCC1)N/N=C/c1ccc(Cl)cc1	-16%
O=C(NNC(=O)c1cc2cc3ccccc3nc2s1)c1ccc(F)cc1	-10%

Four of the compounds above, as labelled records:
> CCOC(=O)C1CCN(Cc2ccc(-c3ccccc3)cc2)CC1
  VDR inh: -8%
> Cc1cc(C(F)(F)F)nn1CC(=O)N1CCCC1
  VDR inh: -5%
> O=C(NNC(=O)c1cc2cc3ccccc3nc2s1)c1ccc(F)cc1
  VDR inh: -10%
> CCCCN1CC[C@H]2C=CC[C@@H](C(=O)Nc3ccccc3)[C@H]2C1=O
  VDR inh: -6%

Carrying on:
SMILES	VDR inh
CCOC(=O)N1CCC(Nc2nc3ccccc3nc2NS(=O)(=O)c2ccc(Cl)cc2)CC1	?
C=CCNc1oc(-c2ccco2)nc1S(=O)(=O)c1ccccc1	-13%
Cc1ccc(CC(=O)Nc2ccc(C(=O)N3CCCCC3)cc2)cc1	13%
Cc1noc(NS(=O)(=O)c2ccc(NC(=O)CS(=O)(=O)c3ccccc3)cc2)c1C	4%
CCCn1c(Nc2ccc(Cl)cc2)nc2ccccc21	12%
Cc1ccc(C(=O)NNC(=O)c2cccc3ccccc23)cc1	-7%
O=C(Nn1c(Cc2cccs2)nc2ccccc2c1=O)c1cccs1	16%
CC(C)C[C@H](NC(=O)C1OC1C(=O)O)C(=O)NCCCCN=C(N)N (some centres undefined)	8%
CNC(=O)CN(C)S(=O)(=O)c1ccc(F)cc1	-2%
COc1ccc(N2CC(C)Cn3c2nc2c3c(=O)n(Cc3ccccc3F)c(=O)n2C)c(OC)c1 (centres undefined)	7%
COc1cccc(C(=O)OCC(=O)c2c[nH]c3ccccc23)c1OC	-11%
CCOC(=O)C1CCN(C(=O)c2c(-c3c(Cl)cccc3Cl)noc2C)CC1	4%
COc1ccccc1Cn1c(=O)c2ccccc2n2c(SCC(=O)N3CCCCC3)nnc12	-9%
COC(=O)c1ccc(NC(=O)c2ccccc2N(C)S(C)(=O)=O)cc1	16%
CCC(CC)NC(=O)CSc1ccc(S(=O)(=O)N2CCCCC2)cn1	-12%
COc1ccc(S(=O)(=O)N2N=C(c3cccc(NS(C)(=O)=O)c3)CC2c2ccco2)cc1 (centres undefined)	1%
CC(=O)c1cccc(NC(=O)[C@H]2O[C@@H]3OC(C)(C)O[C@@H]3[C@H]3OC(C)(C)O[C@H]32)c1	8%
Cn1c(SCC(=O)N/N=C/c2cc([N+](=O)[O-])ccc2O)nnc1-c1ccccc1	-13%
CCOCCCNC(=O)N[C@@H](C)C(=O)OC	9%
CCCCN(CC)CCNC(=O)CN(C)S(=O)(=O)c1ccc2c(c1)c(=O)n(C)c(=O)n2C	12%
COc1ccccc1OCC(=O)Nc1ccc(S(=O)(=O)Nc2nc(C)cc(C)n2)cc1	3%

Screens as filed in PubChem BioAssay.
